VDR inh – vitamin D3 receptor (human) inhibition | P11473 | VDR-SRC2-3 peptide fluorescence polarization, 2 h | Potency, µM, for the others: max response, negative = inhibition, usual class: inhibitors | 400,000 tested, 0.93% active | AID 504847; active = well fitted inhibition curve with a large enough effect; inconclusive = small, poorly fitted or top-dose-only effect, or another doubt; inactive = no such curve, though single readings can be large or run the other way; note: series mostly up to about 120 µM
Target sequence (P11473 whole entry, looked up): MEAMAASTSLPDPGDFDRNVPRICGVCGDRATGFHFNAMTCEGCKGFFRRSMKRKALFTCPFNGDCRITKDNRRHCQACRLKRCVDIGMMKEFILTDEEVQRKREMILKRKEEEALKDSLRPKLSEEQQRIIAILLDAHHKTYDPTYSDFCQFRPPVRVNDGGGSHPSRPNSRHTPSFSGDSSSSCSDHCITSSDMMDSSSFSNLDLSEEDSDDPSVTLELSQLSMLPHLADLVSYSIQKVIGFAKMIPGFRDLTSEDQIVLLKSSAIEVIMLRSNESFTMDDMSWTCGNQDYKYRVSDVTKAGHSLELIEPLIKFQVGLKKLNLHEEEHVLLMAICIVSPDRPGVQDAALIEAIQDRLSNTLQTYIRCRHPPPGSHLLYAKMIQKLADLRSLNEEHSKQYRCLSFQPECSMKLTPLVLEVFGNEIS
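Reagent solutions, kept cold and dark, are dispensed first; compounds are then pinned in at 23 nl, plates briefly spun, and incubated 2 h at ambient temperature. Inhibition of VDR–SRC2-3 peptide binding is read by fluorescence polarization.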
The depositor's hits bear a star; ? = inconclusive; & = joins results of further samples; [ ] = remark or other dose. % is set by controls: 0 for no effect and ±100 for the full control effect; potency is the fitted concentration of half-maximal effect.

The first 2 compounds, ahead of the listing:
molecule	VDR inh
CN(C)CCNC(=O)c1cc2c(s1)-c1ccccc1OC2	-6%
NS(=O)(=O)c1ccc(NC(=O)CSc2nc3c(c(=O)[nH]2)CCCC3)cc1	2%

The list itself, from the first entry:
molecule	VDR inh
CN(C)CCNC(=O)c1cc2c(s1)-c1ccccc1OC2	-6%
NS(=O)(=O)c1ccc(NC(=O)CSc2nc3c(c(=O)[nH]2)CCCC3)cc1	2%
CC(OC(=O)Cn1cnc2c1c(=O)n(C)c(=O)n2C)C(=O)NC(C)c1ccc(Cl)cc1Cl (centres undefined)	3%
COc1cccc(NC(=O)CN2C(=O)NC(CCc3ccccc3)C2=O)c1 (centres undefined)	-6%
ONC(=NCc1ccccc1)c1ccccc1	-14%
CN(C(=O)c1cc2c(=O)n3ccccc3nc2n1C)c1ccccc1	7%
Cc1ccc(C(=O)NC2CC(C)(C)NC(C)(C)C2)cc1S(=O)(=O)N1CCOCC1	-12%
O=C1NCCC/C1=N/Nc1ccc(F)cc1	-25%
CCN(Cc1nc(-c2cccc(Cl)c2)no1)CC1CCCO1 (centres undefined)	-27%
O=C(CSCCO)Nc1nccs1	1%
CCN1C(=O)[C@H]2[C@@H](c3ccc(-c4ccc(F)cc4)c(OC)c3)N3CCC[C@@]3(C(=O)OC)[C@H]2C1=O	-19%
O=S(=O)(NCc1ccc2c(c1)OCO2)c1ccc(Cl)s1	-3%
CC(=O)Nc1ccc(NC(=O)CNC(=O)c2cccc(C)c2)cc1	4%
CC1CCc2c(C(=O)NCCN3CCOCC3)csc2C1 (centres undefined)	34%[activator]
CCC(C)c1ccc(NC(=S)NCc2cccnc2)cc1 (centres undefined)	4%
CCN1CCc2nc3ccccc3c(C(=O)Nc3ccc(NC(C)=O)cc3)c2C1	7%
CCOC(=O)C1=C(COC(=O)COc2ccccc2OCC)NC(=O)NC1C (centres undefined)	-23%
Cc1cc(OCc2cc(C(=O)N3CCC(Oc4cccnc4)CC3)no2)cc(C)c1Cl	-22%
COc1ccc(N2C(=O)N3[C@@H]4c5ccccc5OC[C@@H]4[C@@H](c4ccccc4)[C@@]3(C)C2=O)cc1	-5%
COC(=O)c1cc(S(=O)(=O)N2CCN(C3CCCCC3)CC2)c[nH]1	-19%
N=C1SCC(=O)N1c1ccc(Cl)cc1	0%
CCOC(=O)COc1cc(N2C(=O)CSCC2=O)c(Cl)cc1Cl	-19%
CC(CC#CCN1CCOCC1)OCCC#N (centres undefined)	-7%
CCC1(c2ccccc2)NC(=O)N(CC(=O)Nc2ccc(N3CCOCC3)cc2)C1=O (centres undefined)	12%
Cc1nc2sc(C(c3ccco3)N3CCC(Cc4ccccc4)CC3)c(O)n2n1 (centres undefined)	-4%
CCOc1ccccc1-n1c(SCC(=O)Nc2nccs2)nnc1-c1ccoc1C	0%
COc1ccc(CN2CCN(C(=O)C3CCC(CNS(=O)(=O)c4ccc(C)cc4)CC3)CC2)c(OC)c1OC (centres undefined)	1%
CCOc1ccc(NC(=O)CSc2ccc3nnc(-c4cccnc4)n3n2)cc1	-29%
COc1ccc(CCc2nnc(CCC(=O)N(C)Cc3ccnc4ccccc34)o2)cc1	0%
COc1ccc(N(CC(=O)Nc2cccc(C(C)=O)c2)S(=O)(=O)c2ccc(NC(C)=O)cc2)cc1	12%
Cc1cc(=O)n2cn[nH]c2n1	8%
CCOC(=O)c1sc2ncn(CC(=O)Nc3ccc(OC)c(Cl)c3)c(=O)c2c1C	-9%
S=c1[nH]c2ccccc2n1Cc1ccccc1	?
O=S(=O)(NC1CCCC1)c1ccc(Br)s1	-13%
Cc1nc2ncnn2c(C)c1CCC(=O)N1CCN(c2ccccc2)CC1	-7%
COc1ccc(N2CC(NC(=O)c3ccc4c(c3)OCO4)CC2=O)cc1OC (centres undefined)	0%
CC(C)c1nc(SCC(=O)Nc2cccc3ccccc23)n[nH]1	-21%
CC(=O)c1cccc(N2C(=O)Nc3ccccc3N2O)c1	13%
CC1(C)CC(=O)C/C(=N/NC(=O)C2CCN(S(=O)(=O)c3cccs3)CC2)C1	-9%
CCCc1cc(=O)[nH]c(SCC(=O)N2CCc3cc(OC)c(OC)cc3C2)n1	14%
O=C(COC(=O)/C=C/c1cccc(C(F)(F)F)c1)NCc1cccs1	-10%
CC(=O)c1cccc(NS(=O)(=O)c2cc3c(cc2C)n(C)c(=O)c(=O)n3C)c1	8%
O=C(c1cnccn1)N1CCC2(CCCN(Cc3ccccc3)C2)CC1	?
CC1CCN(CCOCCOc2ccccc2Br)CC1	-9%
O=C(COC(=O)CC1CCCC1)Nc1cccc(F)c1	-13%
O=C(COc1cccc(-n2cnnn2)c1)NCCC1=CCCCC1	8%
O=c1nc2n(c3ncccc13)CCCCC2	-3%
COc1ccc(N2CCN(C(=O)C3(C)CC3(Cl)Cl)CC2)cc1 (centres undefined)	-5%
CCc1ccccc1NC(=O)NCc1ccc2c(c1)OCO2	1%
Cc1ccc(S(=O)(=O)N(C)C)cc1NC(=O)c1cc(S(=O)(=O)N2CCCCC2)ccc1N1CCOCC1	3%

(continued)
molecule	VDR inh
Cc1nc2cccnc2n1-c1cccc(C(=O)NCCN(C)C)c1	-1%
CCSc1nc2n(n1)C(c1ccc(Cl)cc1Cl)C(C(=O)Nc1ccccc1C)=C(C)N2 (centres undefined)	18%
O=C1c2ccccc2S(=O)(=O)c2cc(C(=O)N3CCC(C(=O)N4CCCCC4)CC3)ccc21	-6%
CCN(CC)C(=O)N1c2ccccc2CC(N(CC)CC)c2ccccc21 (centres undefined)	-13%
CCCCOP(=O)(c1ccc(N(C)C)cc1)C(O)c1ccc(OC)cc1 (centres undefined)	40%[activator]
COCc1nnc(NC(=O)C2CCN(C(=O)c3ccccc3)CC2)s1	2%
NS(=O)(=O)c1cccc(NC(=O)CSc2nc3ccccc3c(=O)n2CCCN2CCOCC2)c1	3%
O=S(=O)(c1ccc(Br)s1)N1CCN(c2ccccn2)CC1	26%
NNC(=O)CSCc1ccc(Cl)cc1Cl	?
CCC1=C(c2ccc(C)cc2)S(=O)(=O)N=C1N1CCC(C(=O)NCCc2cccc(OC)c2)CC1	3%
O=C(CSc1nc(C2CC2)nc2ccccc12)N1CCc2ccccc21	-13%
COc1ccccc1N(CC(=O)NCc1ccco1)S(=O)(=O)c1ccc(C)cc1	-13%
Cc1cc(Oc2ccccc2)nc(-c2ccccc2O)n1	25%
Cc1ccccc1SCC(=O)NCC(c1ccc(F)cc1)N1CCOCC1 (centres undefined)	-14%
Cc1ccc(Cl)cc1NC(=O)CN1CCN(S(=O)(=O)N2CCOCC2)CC1	-3%
COc1ccc(NC(C)c2cc(Cl)ccc2O)cc1 (centres undefined)	-13%
CC(C)C(=O)NC(=S)Nc1ccccc1C(=O)NC1CCCCC1	-10%
COc1cccc(Cn2c(=O)c(C)nc3cnc(OC)nc32)c1	-1%
O=C1N/C(=N/Nc2ccccc2)S/C1=C\c1ccccc1	45µM*
O=C(CCn1c(=O)oc2ccccc21)NC1=NCCS1	1%
COc1ccc(N2CCN(C(=O)CN(c3ccc(Br)cc3)S(C)(=O)=O)CC2)cc1	-10%
COc1ccc(CSCCc2n[nH]c(=S)n2-c2ccccc2)cc1C	7%
CN1CCN(C(=O)C2=C[C@H](c3ccc4c(c3)OCO4)C[C@H](OCc3ccc(CO)cc3)O2)CC1	-20%
O=C(Nc1ccc2c(c1)C(=O)OC2)c1ccc(C(F)(F)F)cc1	-16%
CC(C)NS(=O)(=O)c1ccc(NC(=O)C2CC3C=CC2C3)cc1 (centres undefined)	3%
COc1ccc2c(c1)CCCC21NC(=O)N(CC(=O)NCc2cccs2)C1=O (centres undefined)	4%
C=C(C)Cn1c(N)cc(=O)nc1SCC(=O)Nc1cccc(C(F)(F)F)c1	12%
Cc1cc(Nc2cc(Cl)nc(Sc3ccc(NC(=O)C4CC4)cc3)n2)n[nH]1	8%
N/C(=N\OS(=O)(=O)c1ccc2ccccc2c1)c1cccnc1	6%
Oc1csc(Cc2nc(-c3ccccc3F)cs2)n1	10%
c1cncc(-c2nc(-c3cccs3)cs2)c1	9%
O=C1c2cc3ccccc3c(-c3ccccc3)c2C(=O)N1c1ccccn1	-3%
Cc1cccc(NC(=O)/C(C#N)=C/c2cccc([N+](=O)[O-])c2)n1	?
Cn1c(=O)n(CC(=O)Nc2ccc(F)cc2)c2ccccc21	0%
Cc1nc2ccccc2nc(=O)c1NNc1ccccc1	10%&4%
O=C(COC(=O)c1cc[n+]([O-])cc1)Nc1ccc(Cl)cc1Cl	0%
O=C(c1ccccc1)c1nc2ccccc2[nH]c1=O	4%
CCCN(CCC)CCOc1cc(C)ccc1C(C)C	-1%
CCCCn1c(SCC(=O)N(CC)C2CCS(=O)(=O)C2)nc2cc(S(N)(=O)=O)ccc21 (centres undefined)	7%
CCCCn1c(=S)[nH]c2cc(S(=O)(=O)N3CCCCC3)ccc21	-4%
CNC(=S)N(C)[C@H]1c2c(ccc3ccccc23)OC[C@H]1CO	-7%
CCn1cc([N+](=O)[O-])c(C(=O)N2N=C(c3ccccc3)CC2c2ccc([N+](=O)[O-])cc2)n1 (centres undefined)	?
CCCC(=O)n1nc(-c2ccco2)nc1NCc1ccccc1Cl	18%
O=C(Cc1ccc(Cl)c(Cl)c1)Nc1cccc2ncccc12	-10%
COCCN(C(=O)CCl)C(C(=O)NC1CCCCC1)c1ccccc1C (centres undefined)	-23%
COc1ccc(NC(=O)/C=C/c2cccc(F)c2)cn1	0%
O=C(Nc1cccc(F)c1)c1ccc2ncsc2c1	23%
Cc1onc(-c2c(F)cccc2Cl)c1C(=O)Nc1nnc(C(F)(F)F)s1	0%
COc1ccc(Cl)cc1NC(=O)CN(C)C(=O)c1cc2ccccc2cc1O	-13%
CN(C(=O)CN1C(=O)c2ccccc2S1(=O)=O)C1CCCCC1	-14%

5 entries drawn at random from those above, as already listed:
molecule	VDR inh
O=C(Cc1ccc(Cl)c(Cl)c1)Nc1cccc2ncccc12	-10%
Oc1csc(Cc2nc(-c3ccccc3F)cs2)n1	10%
CNC(=S)N(C)[C@H]1c2c(ccc3ccccc23)OC[C@H]1CO	-7%
O=C1c2cc3ccccc3c(-c3ccccc3)c2C(=O)N1c1ccccn1	-3%
CCCC(=O)n1nc(-c2ccco2)nc1NCc1ccccc1Cl	18%

The list continues.
molecule	VDR inh
COc1ccc(CCNC(=O)Cn2nnc(-c3ccc(N4CCOCC4)cc3)n2)cc1OC	-8%
O=C(CSc1nc(=O)n(CCN2CCOCC2)c2c1CCC2)Nc1ccc(OC(F)(F)F)cc1	6%
O=C(Nc1ccccc1C(F)(F)F)c1c(F)cccc1Cl	-17%
N#CC(C#N)=Cc1cccn1-c1ccc(S(N)(=O)=O)cc1	?
CS(=O)(=O)N1CCC2(CCN(C(c3ccccc3)c3ccccc3)CC2)CC1	5%
CC(C)C[C@H](NC(=O)c1nc[nH]c1C(=O)NCc1ccccc1)C(=O)OC(C)(C)C	8%
S=c1[nH]nc(CCc2nc3ccccc3[nH]2)n1-c1ccccc1	-2%
Cc1ccc(CSCC(=O)NN=C2CCN(C)CC2)cc1	5%
O=C(CCc1ccccc1)NCCc1nc2ccccc2[nH]1	3%
CCOC(=O)COn1c(SCC(=O)OCC)nc2ccccc2c1=O	-4%
CC(C)CCNC(=O)C(c1ccncc1)N(CC1CCCO1)C(=O)Cn1nnc(-c2ccc(F)cc2)n1 (centres undefined)	-7%
COc1ccc(OC)c(CN2CCC(C(=O)N3CCN(c4ccccc4F)CC3)CC2)c1	13%
COC(=O)c1ccccc1NC(=S)NC(=O)c1ccc(C)cc1	?
COc1ccc(OCC(=O)NCC2(N3CCN(C)CC3)CCCCC2)cc1	-6%
CCOc1ccc2nc(N(CCN(CC)CC)C(=O)/C=C/c3cccs3)sc2c1	8%
CC(=O)c1c(N2CCOCC2)[nH]c(-c2ccccc2)nc1=S	-24%
COc1ccccc1-c1nnc(C2CCN(S(=O)(=O)c3ccccc3[N+](=O)[O-])CC2)o1	-8%
O=C(CCCCCNC(=S)Nc1ccccc1)C[N+](=O)[O-]	3%
COCC(=O)Nc1cc(C(=O)NCCc2ccccc2)ccc1Cl	19%
CN(c1ccc(F)cc1)S(=O)(=O)c1ccc(Cl)c(C(=O)NCC2(N3CCOCC3)CCCCC2)c1	-5%
CCOC(=O)c1nnn(-c2nonc2N)c1C	-6%
CC(C)C(=O)Nc1c2c(nn1-c1ccc(F)cc1)CS(=O)(=O)C2	2%
CNC(=O)NC(=O)Cn1cnc2sc(-c3ccccc3)cc2c1=O	22%
CSCC[C@@H](C(=O)O)N1Cc2ccccc2C1=O	3%
Cc1nn(S(=O)(=O)c2ccc(C(C)(C)C)cc2)c(C)c1S(=O)(=O)N1CCC(C)CC1	1%
CC(C)CC(NC(=O)CC12CC3CC(CC(C3)C1)C2)C(=O)NC1=NCCS1 (centres undefined)	71µM*
CC(C)OC(=O)n1c(=S)oc2ccccc21	-9%
CCOc1ccc(NC(=O)NNC(=O)C2CCC(C(C)(C)C)CC2)cc1 (centres undefined)	-7%

Assay outcomes deposited in PubChem by National Center for Advancing Translational Sciences (NCATS).

An excerpt, so the mix of outcomes need not match the whole.
